Screening data (PubChem BioAssay)
Mtb betalactam: beta-lactam sensitization of Mtb H37Rv, H37Rv; AID 434955, 2010; inhibition, % at 25 µM; 330,000 compounds, 0.27% hits; M. tuberculosis H37Rv growth with meropenem, percent inhibition; hits of this screen are not shown here;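 active = about 74% or more and at least 40 points above the plate without the antibiotic, then above 30% in a dose series; inconclusive = first-round hits that could not be retested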;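 note: growth measured after seven days incubation then overnight dye step; 0% = bacteria only wells and 100% = bacteria with antibiotic; twin plates without the antibiotic show which effects depend on it; some results filed as inactive read as strong as hits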
YopH PTP inh: YopH tyrosine phosphatase inhibitors, primary screen, biochemical, fluorescence Ex485/Em525. YopH tyrosine phosphatase [Yersinia enterocolitica]. inhibition, %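 (about 10 µM by stock and volumes)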. 140,000 compounds, 0.16% hits;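 active = inhibition of 50% or more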;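 note: controls were vehicle for no effect and minimum signal wells for full effect; inactives centre near -20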
RecA intein inh: Mtb RecA intein splicing inhibitors, primary screen, biochemical, fluorescence, HTS. 290,000 compounds, 0.75% hits. cell-free RecA intein splicing. Protein RecA (Mycobacterium tuberculosis (strain ATCC 25618 / H37Rv)), P9WHJ3. inhibition, %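 (about 9 µM by stock and volumes)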. AID 2221, 2009; in the data active = inhibition above about 30%; inconclusive = no clear call, values can overlap the other calls;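 note: 0% = vehicle wells and 100% = reference inhibitor control wells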
Target sequence (P9WHJ3 whole entry, looked up): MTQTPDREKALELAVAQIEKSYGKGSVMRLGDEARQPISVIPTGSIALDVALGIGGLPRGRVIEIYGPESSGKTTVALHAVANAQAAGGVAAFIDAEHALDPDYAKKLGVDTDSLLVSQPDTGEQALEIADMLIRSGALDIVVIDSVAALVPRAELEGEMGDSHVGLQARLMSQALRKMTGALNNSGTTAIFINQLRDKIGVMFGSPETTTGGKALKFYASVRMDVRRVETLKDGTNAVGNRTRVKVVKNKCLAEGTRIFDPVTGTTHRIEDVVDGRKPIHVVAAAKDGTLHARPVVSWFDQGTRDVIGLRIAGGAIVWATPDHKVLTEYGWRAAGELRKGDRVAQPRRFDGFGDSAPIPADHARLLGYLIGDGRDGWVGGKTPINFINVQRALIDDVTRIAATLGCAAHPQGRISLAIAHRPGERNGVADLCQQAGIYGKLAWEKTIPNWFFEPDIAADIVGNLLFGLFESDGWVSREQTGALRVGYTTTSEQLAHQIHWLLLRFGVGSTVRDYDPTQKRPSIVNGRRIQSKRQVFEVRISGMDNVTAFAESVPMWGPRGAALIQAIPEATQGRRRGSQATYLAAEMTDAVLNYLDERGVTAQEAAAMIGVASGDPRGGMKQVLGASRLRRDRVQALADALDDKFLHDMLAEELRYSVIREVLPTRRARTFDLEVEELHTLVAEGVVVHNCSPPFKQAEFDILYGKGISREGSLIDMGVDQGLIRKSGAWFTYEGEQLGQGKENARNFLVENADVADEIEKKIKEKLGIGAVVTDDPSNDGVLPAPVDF
Arbovirus inh: antivirals against arbovirus infection, primary screen, cell-based, full library, 10K replicate subset. arbovirus infection cell-based antiviral screen. inhibition, % at 10 µM. 200,000 compounds, 0.37% hits. AID 1251, 2008;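 active = inhibition from about 30%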;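 note: bluetongue infection of BSR cells; cell survival read as ATP light after 72 h; 0% = infected wells without compound and 100% = uninfected wells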
Mtb H37Rv: M. tuberculosis H37Rv growth inhibitors, H37Rv strain (AID 1626); M. tuberculosis H37Rv growth inhibition; higher % means a stronger effect; inhibition, % at 10 µM; hits with a dose series show IC50 in µM; 220,000 compounds, 0.95% hits;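 active = confirmed in a dose series; inconclusive = inhibition above 80% but not taken into the dose series; inactive = below 80% or under 30% at every dose of the series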;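 note: bacteria incubated seven days before Alamar blue readout; 0% = bacteria only wells and 100% = bacteria with antibiotic wells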
Arbovirus inh repeat: second read-out of Arbovirus inh, no call of its own (marks repeat the call); inhibition, %; measured here: 10K subset replicate screen; many hits read low in the repeat;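 first of two repeat runs on a subset; 0% = infected and 100% = uninfected wells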
Starred values were filed as active, the others as inactive; ? = inconclusive; . = not tested or not shown; & = joins results of further samples. A portion of the library (hit frequency here may not be typical).

Preview, five compounds:
SMILES	Mtb betalactam	YopH PTP inh	RecA intein inh	Arbovirus inh	Mtb H37Rv	others
Cc1ccc2nc(Cc3ccc(N)cc3)[nH]c2c1	-5	-6	-1.2	-3	-2%
OCC1(CC2CCCCO2)CCN(Cc2ccccc2-c2ccco2)CC1 (stereo not given)	-3	.	2.3	10	4%
CCN(CC)C(=O)c1ccc(NC(=O)c2cccc(S(=O)(=O)N3CCN(Cc4ccccc4)CC3)c2)cc1	7	.	2.2	.	.
Cc1ccc(S(=O)(=O)N2CCOCC2)cc1C(=O)Nc1ccc(C(N)=O)cc1	-1	.	0.8	.	-9%
Cc1nnc2ccc(-c3ccc(NS(C)(=O)=O)cc3)nn12	-6	.	-1.5	-2	4%

The list itself (from the top)
SMILES	Mtb betalactam	YopH PTP inh	RecA intein inh	Arbovirus inh	Mtb H37Rv	others
Cc1ccc2nc(Cc3ccc(N)cc3)[nH]c2c1	-5	-6	-1.2	-3	-2%
OCC1(CC2CCCCO2)CCN(Cc2ccccc2-c2ccco2)CC1 (stereo not given)	-3	.	2.3	10	4%
CCN(CC)C(=O)c1ccc(NC(=O)c2cccc(S(=O)(=O)N3CCN(Cc4ccccc4)CC3)c2)cc1	7	.	2.2	.	.
Cc1ccc(S(=O)(=O)N2CCOCC2)cc1C(=O)Nc1ccc(C(N)=O)cc1	-1	.	0.8	.	-9%
Cc1nnc2ccc(-c3ccc(NS(C)(=O)=O)cc3)nn12	-6	.	-1.5	-2	4%
O=C(c1cc(COc2ccc(F)cc2Cl)on1)N(Cc1ccncc1)CC1CCCO1 (stereo not given)	3	.	1.7	9	0%
COC(=O)C1(C)NC(c2ccc(C)cc2)C2C(=O)N(c3ccc(F)cc3)C(=O)C21 (stereo not given)	-7	.	-1.4	.	.
CCCCn1nnnc1NCc1cccc(OC)c1OC	-1	-15	-4.6	4	2%
CCOc1ccc(S(=O)(=O)N2CCC(C(=O)NCCc3ccc(S(N)(=O)=O)cc3)CC2)cc1	2	.	-9.4	.	.
CCN(CC)c1ccc(NC(=O)CN2CCN(c3ccccc3F)CC2)cc1	1	-55	3.4	-10	0%
Cc1cc(NC(=O)CSc2nnc(CNC(=O)c3c(F)cccc3F)o2)no1	-5	.	3.3	.	.
C[C@H](N)c1nnc(SCC(N)=O)o1	-1	.	-3.4	.	-12%
N=C1C(c2nc3ccccc3s2)=C(O)CN1NC(=O)c1ccc([N+](=O)[O-])cc1	.	.	.	-29	6%
CCCCN(CC)S(=O)(=O)c1c(C)[nH]c(=O)[nH]c1=O	2	.	-1.5	15	5%
Cc1[nH]c(=O)[nH]c(=O)c1S(=O)(=O)N1CCCC(C(=O)NCc2ccco2)C1 (stereo not given)	8	-2	-0.8	10	-1%
COc1ccc(-n2c(C)nn(CC3CC3)c2=O)cc1	.	.	-0.7	0	4%
CN(C(=O)CC(=O)Nc1ccc(Cl)c(Cl)c1)c1ccccc1	96	.	3.2	-3	-2%
CCn1ncc(C2=NOC(C(=O)NCc3ccc(OC)cc3)C2)c1C (stereo not given)	-5	-32	-1.1	-26	5%
O=C(Nc1ccc(N2CCOCC2)cc1)Nc1ccc2nsnc2c1	-4	.	54*	-3	-1%
COc1ccc(NC(=O)CSc2nnc(-c3ccccc3)n2N)cc1	-11	-40	-1.3	0	2%	Arbovirus inh repeat=-2
Cn1c(=O)c([N+](=O)[O-])c(NCCc2ccccc2)c2ccccc21	3	-15	-4.8	-12	3%
CC(=O)c1c(-c2ccccc2)[nH]c2ccccc12	5	.	0.1	.	.
CC(=O)c1ccc(S(=O)(=O)Nc2ccc(-c3cn4c(n3)SCC4)cc2)cc1	-3	.	-3.2	14	-14%
COc1ccccc1N1CCN(Cc2ccccc2)CC1	-5	.	0.2	.	.
CCNC(=O)C1CCCN(c2nc(C)cc(C)n2)C1 (stereo not given)	4	.	-0.3	-1	-7%

A run of entries from the list above, as a working copy:
SMILES	Mtb betalactam	YopH PTP inh	RecA intein inh	Arbovirus inh	Mtb H37Rv	others
OCC1(CC2CCCCO2)CCN(Cc2ccccc2-c2ccco2)CC1 (stereo not given)	-3	.	2.3	10	4%
CCN(CC)C(=O)c1ccc(NC(=O)c2cccc(S(=O)(=O)N3CCN(Cc4ccccc4)CC3)c2)cc1	7	.	2.2	.	.
Cc1ccc(S(=O)(=O)N2CCOCC2)cc1C(=O)Nc1ccc(C(N)=O)cc1	-1	.	0.8	.	-9%
Cc1nnc2ccc(-c3ccc(NS(C)(=O)=O)cc3)nn12	-6	.	-1.5	-2	4%
O=C(c1cc(COc2ccc(F)cc2Cl)on1)N(Cc1ccncc1)CC1CCCO1 (stereo not given)	3	.	1.7	9	0%
COC(=O)C1(C)NC(c2ccc(C)cc2)C2C(=O)N(c3ccc(F)cc3)C(=O)C21 (stereo not given)	-7	.	-1.4	.	.

Part of the list above in order of count of non-hydrogen atoms, smallest number first:
SMILES	Mtb betalactam	YopH PTP inh	RecA intein inh	Arbovirus inh	Mtb H37Rv	others
O=C(Nc1ccc(N2CCOCC2)cc1)Nc1ccc2nsnc2c1	-4	.	54*	-3	-1%
OCC1(CC2CCCCO2)CCN(Cc2ccccc2-c2ccco2)CC1 (stereo not given)	-3	.	2.3	10	4%
Cc1ccc(S(=O)(=O)N2CCOCC2)cc1C(=O)Nc1ccc(C(N)=O)cc1	-1	.	0.8	.	-9%

New compounds follow:
SMILES	Mtb betalactam	YopH PTP inh	RecA intein inh	Arbovirus inh	Mtb H37Rv	others
CN(CC(=O)Nc1ccc(N2CCOCC2)cc1)CC(=O)Nc1ccc(C(F)(F)F)cc1	35	.	-5.0	-5	-9%
O=C(NCCc1ccc(Cl)cc1)C1CCCO1 (stereo not given)	1	.	-1.9	.	.
COc1ccc(N2CCN(Cc3cc4c(cc3Br)OCCO4)CC2)cc1	75	.	5.2	.	.
COc1ccc(NC(=O)CN(C)S(=O)(=O)c2ccc(Cl)cc2)c([N+](=O)[O-])c1	-7	-35	0.4	-2	-5%
CC(C)NS(=O)(=O)c1ccc(OCC(=O)NCCC2=CCCCC2)cc1	0	-13	2.4	4	-3%
C/C(CC(=O)Nc1cc(C)ccn1)=N\NC(=O)c1ccc(C)cc1	9	.	62*	-6	2%
CCOc1ccccc1/C=N/Nc1ccc(Cl)nn1	9	.	-2.0	.	.
CCOC(=O)Cc1nnc(NC(=O)CSc2ccc(C)cc2)s1	-5	-41	-0.9	1	-3%
CC(=O)O[C@]1(C(C)=O)CC[C@H]2[C@@H]3C[C@H](C)C4=CC(=O)CC[C@]4(C)[C@H]3CC[C@@]21C	-4&6	-49	4.1	24	1%
CCc1nn(C(C)C(=O)N2CCc3ccccc3C2)c(=O)c2cc3occc3n12 (stereo not given)	-17	1	1.3	3	-7%
CN(CC(=O)Nc1ccccc1C(F)(F)F)C(=O)CSCc1ccccc1	-8	.	-0.2	.	.
O=C(NCCN1CCOCC1)c1csc2c1CCCC2	-9	-22	-1.7	7	5%
CCNc1ccc(C(=O)Nc2ccc3nc(C)sc3c2)cc1[N+](=O)[O-]	1	-27	2.2	-1	-1%
COc1ccc(NS(=O)(=O)c2ccc3c(c2)CCO3)cc1	-8	.	1.5	.	2%
Cn1cccc1C(=O)N1CCN(c2cccc(C(F)(F)F)c2)CC1	-12	-5	1.8	-3	-4%
O=C(NC1CCCN(Cc2ccc(Cl)cc2)C1)c1ccoc1 (stereo not given)	-4	.	-0.7	.	.
COc1ccc(-c2c(C)c3ccc(O)cc3oc2=O)cc1OC	-1	.	-105	.	.
CCn1c(SCC(=O)Nc2c(C)n(C)n(-c3ccccc3)c2=O)nnc1-c1cccc(C)c1	-13	-42	-1.5	13	.
CC(C)c1ccc(-n2c(O)c(C=NC(CCS(C)=O)C(=O)O)c(=O)[nH]c2=S)cc1 (stereo not given)	0	.	1.2	.	-1%
Nc1nc(SCC(=O)N2CCc3ccccc32)[nH]c(=O)c1-c1ccccc1	2	-46	-0.5	7	-10%
Cc1cccc(Cn2c(=O)n(CCCC(=O)NCc3ccco3)c(=O)c3ccccc32)c1	0	-36	0.0	-18	-3%
CC(=O)Nc1ccc(-c2csc(Nc3ccccn3)n2)cc1	4	.	-2.2	.	4%
O=C(COC(=O)Cc1ccc(F)cc1)Nc1ccc2[nH]c(=O)[nH]c2c1	2	.	-4.0	.	.
CCC(C(=O)Nc1ccccc1OC)n1c(C(=O)OC)cc2ccsc21 (stereo not given)	-5	-47	8.8	14	17%
CCCCc1n[nH]c(=S)n1Cc1ccc(C)cc1	-8	.	4.3	4	-1%
(more compounds)
SMILES	Mtb betalactam	YopH PTP inh	RecA intein inh	Arbovirus inh	Mtb H37Rv	others
C[C@@H]1C[C@H]2[C@@H]3C[C@H](F)C4=CC(=O)C=C[C@]4(C)[C@@]3(F)[C@@H](O)C[C@]2(C)[C@@]1(O)C(=O)CO	-2	-7	5.6	21	-2%
Cc1ccc(CN(Cc2ccco2)C(=O)c2ccco2)cc1	-5	.	4.2	.	.
CCC(c1nnc(SCC(=O)Nc2cccc(S(N)(=O)=O)c2)n1-c1ccc(OC)cc1)N(C)C (stereo not given)	-7	.	1.1	.	.
Cc1cccc(OCC(=O)NCCN2CCOCC2)c1	-2	-8	-2.3	10	-3%
O=C(Nc1cccnc1Cl)c1cccc(F)c1	-9	.	-0.7	-2	-1%
Cc1cc(C)n(CCC(=O)Nc2cccc(F)c2)n1	-3	.	-1.0	3	5%
COc1ccccc1NC(=O)c1ccc(NC(=O)CSc2n[nH]c(N)n2)cc1	8	-3	-3.2	-3	10%
CC(=O)N1CC=CC1(C)C(=O)O (stereo not given)	-1	-6	-3.8	2	-4%
COc1cccc(C2(O)CCN(C(=O)C3CCC3)CC2)c1	-5	1	-0.1	-4	-7%
Cc1ccc(C(=O)NCC(=O)OCC(=O)NC2CCCCCCC2)cc1	-16	.	3.2	.	.
O=C(NCc1ccco1)c1cc(-c2ccccc2)nn1CC1CC(c2cccnc2)=NO1 (stereo not given)	-4	.	1.1	.	-4%
COc1cccc(Oc2c(C)oc3c(CN4CCCC4)c(O)ccc3c2=O)c1	-5	.	-4.2	.	-7%
COc1ccccc1N1CCN(C(=O)CNC(=O)Cn2cnc3sc(C)c(C)c3c2=O)CC1	?	.	0.6	.	.
NC(=O)c1ccc(N2CCOCC2)nc1	-2	.	3.9	1	5%
COc1cc(C(=O)OCC(=O)NC2CCS(=O)(=O)C2)ccc1OCc1c(C)noc1C (stereo not given)	-6	-12	0.9	-14	-4%
COc1ccc(NC(=O)COc2nsnc2N2CCCCC2)cc1	-4	-11	-3.1	2	4%
Cc1cnc(NC(=O)C(C)N2CCN(C)CC2)s1 (stereo not given)	8	.	-0.9	5	0%
CC1CC(C)CN(C(=O)c2cc(S(=O)(=O)N3CCCCC3)ccc2Cl)C1 (stereo not given)	-2	.	2.4	.	.
CC(C)CNC(=O)CC(c1ccccc1)c1ccccc1	-8	.	2.2	-5	-2%
CC1=NN(c2ccc(C(F)(F)F)cn2)C(=O)C1	-2	-13	-1.8	-3	0%
C=CCNC(=O)c1cc2cccc(OC)c2oc1=O	-5	.	-9.5	9	-5%
O=C(Nc1ccc(O)c(-c2nc3ccccc3o2)c1)C1(c2ccccc2)CCCC1	15	-22	-0.2	-3	3%
CC1CCCCN1S(=O)(=O)c1ccc(C(=O)Nc2nnc(-c3ccccn3)o2)cc1 (stereo not given)	39	.	2.6	-2	-3%
CCOc1ccc(C2=[N+]([O-])C(C)(C)N(O)C2(C)C)cc1	-2	-23	-2.9	4	-6%
CC(C)CC1(C)NC(=O)N(Cc2cc([N+](=O)[O-])cc3c2OCOC3)C1=O (stereo not given)	-5	.	0.7	.	1%
O=C(Cn1nc(C(F)F)cc1C(F)F)NNC(=S)Nc1ccc(Cl)cc1	-9	-30	2.8	-4	-3%
CCOC(=O)C1(Cc2ccc(OC)cc2)CCN(C(=O)c2cc(C)on2)CC1	-6	.	-1.8	.	.
